# Source: PubChem BioAssay (several laboratories)
# Mtb bLac sens: beta-lactam sensitization of Mtb H37Rv; inhibition, % at 25 µM; 330,000 compounds, 0.27% hits; M. tuberculosis H37Rv growth with meropenem, percent inhibition; hits of this screen are not shown here;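 active = about 74% or more and at least 40 points above the plate without the antibiotic, then above 30% in a dose series; inconclusive = first-round hits that could not be retested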;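 also: growth measured after seven days incubation then overnight dye step; 0% = bacteria only wells and 100% = bacteria with antibiotic; twin plates without the antibiotic show which effects depend on it; some results filed as inactive read as strong as hits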
# Arbovirus anti: blocks arbovirus infection; arbovirus infection cell-based antiviral screen; inhibition, % at 10 µM; 200,000 compounds, 0.37% hits; AID 1251;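 active = inhibition from about 30%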;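 also: bluetongue infection of BSR cells; cell survival read as ATP light after 72 h; 0% = infected wells without compound and 100% = uninfected wells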
# RecA splice inh: Mtb RecA intein splicing inhibition. P9WHJ3. cell-free RecA intein splicing, fluorescence. inhibition, %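 (about 9 µM by stock and volumes)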. 290,000 compounds, 0.75% hits. AID 2221; in the data active = inhibition above about 30%; inconclusive = no clear call, values can overlap the other calls;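 also: 0% = vehicle wells and 100% = reference inhibitor control wells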
# Target sequence (P9WHJ3 whole entry, looked up, canonical isoform): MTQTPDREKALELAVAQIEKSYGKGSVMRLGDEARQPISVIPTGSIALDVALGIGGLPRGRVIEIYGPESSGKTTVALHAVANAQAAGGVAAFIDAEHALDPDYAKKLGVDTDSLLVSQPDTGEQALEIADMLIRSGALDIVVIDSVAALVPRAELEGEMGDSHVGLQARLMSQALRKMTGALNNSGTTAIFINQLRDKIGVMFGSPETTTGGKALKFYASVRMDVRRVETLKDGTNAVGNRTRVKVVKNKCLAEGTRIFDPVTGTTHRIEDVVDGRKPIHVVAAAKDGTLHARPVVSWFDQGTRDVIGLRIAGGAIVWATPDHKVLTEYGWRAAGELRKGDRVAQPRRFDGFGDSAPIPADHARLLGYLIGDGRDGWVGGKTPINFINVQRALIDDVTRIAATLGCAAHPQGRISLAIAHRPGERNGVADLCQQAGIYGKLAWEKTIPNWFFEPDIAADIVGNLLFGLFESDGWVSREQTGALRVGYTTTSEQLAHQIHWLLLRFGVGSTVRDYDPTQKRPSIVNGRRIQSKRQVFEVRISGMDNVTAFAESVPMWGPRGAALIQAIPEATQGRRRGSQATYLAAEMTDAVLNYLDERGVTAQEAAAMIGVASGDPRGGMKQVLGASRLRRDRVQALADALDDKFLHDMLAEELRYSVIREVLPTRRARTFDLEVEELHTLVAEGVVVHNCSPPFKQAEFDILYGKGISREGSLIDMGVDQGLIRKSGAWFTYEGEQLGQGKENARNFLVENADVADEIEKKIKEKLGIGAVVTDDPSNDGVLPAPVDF
# Mtb growth: M. tuberculosis H37Rv growth inhibitors, H37Rv strain (AID 1626). M. tuberculosis H37Rv growth inhibition; higher % means a stronger effect. inhibition, % at 10 µM, or IC50 in µM where a hit was titrated. 220,000 compounds, 0.95% hits;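 active = confirmed in a dose series; inconclusive = inhibition above 80% but not taken into the dose series; inactive = below 80% or under 30% at every dose of the series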;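 also: bacteria incubated seven days before Alamar blue readout; 0% = bacteria only wells and 100% = bacteria with antibiotic wells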
# YopH PTP inh: inhibitors of Yersinia enterocolitica YopH tyrosine phosphatase; fluorescence Ex485/Em525; inhibition, %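 (about 10 µM by stock and volumes)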; 140,000 compounds, 0.16% hits; AID 898;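 active = inhibition of 50% or more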;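 also: controls were vehicle for no effect and minimum signal wells for full effect; inactives centre near -20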
# Arbovirus anti repeat: further read-out of Arbovirus anti, marked with its call; inhibition, %; measured here: 10K subset replicate screen; many hits read low in the repeat;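 first of two repeat runs on a subset; 0% = infected and 100% = uninfected wells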
# * = called active by the depositor; i = inactive; ? = inconclusive; / = no result given.
SMILES,Mtb bLac sens,Arbovirus anti,RecA splice inh,Mtb growth,YopH PTP inh,others
Cc1ccc(C(=O)NNc2cc(N3CCCC3)nc(N3CCCC3)n2)cc1,98,1,-11,-1%,8,
Cc1cccc(C)c1OCc1cc(C(=O)N2CCN(Cc3nccn3C)CC2)no1,-8,/,0.8,/,/,
CN(C)Cc1ccccc1OC(=O)N(C)C,3,-2,-7.5,7%,-9,
Cc1onc(-c2c(F)cccc2Cl)c1C(=O)OCC(=O)c1c(N)n(C)c(=O)n(C)c1=O,4,3,5.6,-1%,/,
CC(=O)N1CCN(S(=O)(=O)c2c(C)n(C)c(=O)n(C)c2=O)CC1,-1,/,0.1,/,/,
Cc1cc2nc(/N=C(\N)NC(=O)C(C)C)nc(C)c2cc1C,98,/,0.0,?,/,
Cc1ccc2oc(=O)c(/C=C(\O)C(C)(C)C)nc2c1,0,4,-4.9,3%,/,
CC(C)Sc1nc(NCc2ccco2)c2c3c(sc2n1)COC(C)(C)C3,41,8,8.6,-3%,1,Arbovirus anti repeat=-3
Cc1ccc2nc(-c3ccccc3)oc(=O)c2c1,6,/,17,/,/,
O=C(Nc1ccncc1)c1cc2ccccc2cc1O,1,/,-2.8,/,/,
CCO[C@@H]1OC(C(=O)NCc2ccccc2)=C[C@H](c2ccc(Br)cc2)[C@H]1CCCO,0,-20,9.7,1%,/,
Cn1c(=NC(=O)CS(=O)(=O)c2ccc(F)cc2)sc2ccccc21,-2,/,1.3,/,/,
COc1cccc(CNc2ccc(Br)cn2)c1O,93,-2,8.1,4%,-40,
CN(CC(=O)Nc1ccc(N2CCOCC2)cc1)C(=O)CSc1ccc(Br)cc1,-5,/,2.5,/,/,
Cc1ccc(NC(=O)CCCC(=O)O)c(-c2nc3ccccc3[nH]c2=O)c1,-2,/,3.6,/,/,
O=C(NCc1ccc2c(c1)OCO2)c1n[nH]c(=O)c2ccccc12,4,-10,-1.3,-8%,/,
O=C(CSc1nc2ccccc2s1)N1CCOCC1,2,3,-0.9,-3%,-100,
CCOc1ccc(-n2c(C)nc3c(cnn3-c3ccc(Cl)cc3)c2=O)cc1,/,8,0.2,-2%,35,
COCCNC(=O)c1c[nH]c2ccc(S(=O)(=O)N3CCC4(CC3)OCCO4)cc2c1=O,/,-6,-0.8,-3%,-2,
Cc1cc(C)c2c(NC(=O)C3CC3)nn(C)c2n1,0,3,0.3,-1%,/,
Cc1ccc(S(=O)(=O)N(C)CCCC(=O)N2CCN(c3ccccn3)CC2)cc1,-16,0,2.4,-1%,-21,
Cc1nc2ccccc2n1/C(=N/S(=O)(=O)c1ccc(Br)cc1)c1ccccc1,-5,11,-2.2,-2%,-17,
CCOC(=O)c1nc(N)c(=O)n(-c2ccccc2)n1,-9,1,-2.6,8%,-34,
Cc1cccc(N2CCN(C(=O)c3ccc(CNc4c(N5CCC(C)CC5)c(=O)c4=O)cc3)CC2C)c1 (centres undefined),98,1,0.5,16µM*,/,
Cn1c(=O)oc2cc(S(=O)(=O)Nc3ccc(Cl)cc3)ccc21,-5,/,-3.7,/,/,

# (further entries)
SMILES,Mtb bLac sens,Arbovirus anti,RecA splice inh,Mtb growth,YopH PTP inh,others
O=C(NNS(=O)(=O)c1ccccc1)c1cnn(-c2ccc(Cl)cc2)c1C(F)(F)F,-1,/,2.1,-12%,/,
CC1=NN(c2ccccc2)C(=O)/C1=C\N1CC(C)OC(C)C1 (centres undefined),0,4,2.6,-2%,-39,
O=C(CNC(=O)c1ccc(Br)cc1)Nc1ccc(Br)cc1C(=O)c1ccccc1,-5,5,7.3,9%,-29,
O=C(N/N=C/c1ccc(OCCCF)cc1)c1ccc(C(F)(F)F)cc1,-2,-6,/,-8%,/,
CCCN1C(=O)/C(=C2\SC(=S)N(c3c(C)n(C)n(-c4ccccc4)c3=O)C2=O)c2ccccc21,4,/,-1.5,2%,/,
COc1ccc(CN=C2NC(=O)CC(C(=O)Nc3ccc([N+](=O)[O-])cc3C)S2)cc1 (centres undefined),/,-9,/,7%,-22,
COc1ccc(C2C(C(C)=O)=C(O)C(=O)N2Cc2cccnc2)cc1 (centres undefined),4,8,/,-8%,-36,
C=CCOc1ccc(C2C3=C(CCCC3=O)N(CC(=O)O)C3=C2C(=O)CCC3)cc1OCC,0,/,-3.4,/,/,
CC(=O)N1N=C(c2ccc(Cl)cc2)OC1(C)C,-2,2,-2.9,6%,-4,
O=C(Cc1cccc(F)c1)Nc1ccc2c(c1)CCC2,8,/,0.1,/,/,
CCOC(=O)c1ccc(NC(=O)NCc2ccc(OC)cc2)cc1,2,5,1.8,11%,/,
COc1ccc(/C=C2/CCc3ccccc3C2=O)cc1CN1CCOCC1,1,6,4.2,3%,-36,
CC(C)CN(C(=O)COc1ccc(-c2nnco2)cc1)C1CCS(=O)(=O)C1 (centres undefined),?,/,1.6,/,/,
CC(=O)Cn1c(=O)oc2ccccc21,-6,/,-1.0,1%,/,
O=C1c2cccc3c([N+](=O)[O-])ccc(c23)C(=O)N1c1ccccn1,100,-36,-33,7.3µM*,8,
O=C(c1ccc(Cl)cc1)n1c(NCc2ccccc2)n[nH]c1=S,2,-3,-1.9,1%,/,
CN(CC(=O)Nc1ccc(S(=O)(=O)N2CCCC2)cc1)Cc1ccc(Cl)cc1,-3,-5,5.5,-4%,-24,
CC1Cc2nc(SCC(=O)NCc3ccco3)n(Cc3ccccc3)c(=O)c2S1 (centres undefined),-1,-3,3.0,-5%,-27,Arbovirus anti repeat=-1
CCn1nc2cc(C(=O)NCCc3cccs3)ccc2c1OC,2,7,-4.1,-8%,-24,
CCOC(=O)C1C(c2ccc3c(c2)OCO3)NC(=O)NC1(O)C(F)(F)F (centres undefined),-2,2,-1.6,-7%,-19,
CCCCNc1c(N)n(CCC)c(=O)[nH]c1=O,5,1,-4.2,5%,/,
O=C(CN1CCOCC1)OCCCC1CCCCC1,0,8,0.9,-9%,-42,
CCN(CC)c1ccc2c(C)c(Cl)c(=O)oc2c1,-7,6,i,-3%,/,
O=C(NCc1ccc2c(c1)OCO2)C1Cc2ccccc2CN1C(=O)c1ccco1 (centres undefined),0,0,1.1,-7%,/,
CCCCC(=O)Nc1nnc(CCOC)s1,2,5,0.3,-5%,/,

# Next part
SMILES,Mtb bLac sens,Arbovirus anti,RecA splice inh,Mtb growth,YopH PTP inh,others
Cn1c(SCC(=O)Nc2nccs2)nnc1-c1ccncc1,0,2,-2.0,-15%,-24,
CCOC(=O)c1c(C)n(C)c2ccc(OC)c(NC(=O)CN3CCCCC3)c12,-2,-1,/,/,6,
CCOC(=O)c1ccc(Oc2nc(OC)cc(OC)n2)cc1,4,-1,-1.7,0%,/,
CCCCn1c(=O)c(C(=O)Nc2cnccn2)c(O)c2ccccc21,97,-1,-4.2,5.8µM*,-18,
CSc1sc(C(=O)NCC2CC2)cc1S(=O)(=O)C(C)C,-3,/,-0.4,-1%,/,
Cc1ccc(/C=C/C(=O)N2CCc3ccccc3C2)cc1,-6,-1,2.2,/,-21,
CN(C)CCN(Cc1ccccc1)c1ccnc(N(C)C)c1C#N,-12,-5,3.9,/,-27,Arbovirus anti repeat=2
COc1ccc(C2=NN(S(C)(=O)=O)C(c3cccs3)C2)cc1OC (centres undefined),-5,9,-1.3,-5%,/,
O=S1(=O)NC(=NC2CCCCCC2)c2ccccc21,-14,-7,-1.2,-12%,-25,
CN(Cc1ccc(Cl)cc1Cl)C(=O)c1cc(=O)c2ccccc2o1,4,/,0.0,/,/,
COc1cc(NC(=O)CSc2nnc3n2C(C)(C)Cc2ccccc2-3)cc(OC)c1,2,-23,9.1,-1%,-10,
CCOc1cc(S(=O)(=O)NC2CCCC2)ccc1Cl,-4,-15,0.9,-7%,-21,
c1ccc2c(c1)OCCOCCOCCO2,-7,14,-4.8,-3%,/,
C#CC(CC)(CC)NC(=S)Nc1ccc(S(N)(=O)=O)cc1,-5,1,1.1,1%,-3,
COc1ccc(NC(=O)CCCC2=NS(=O)(=O)c3ccccc3N2)cc1,0,4,-0.2,/,1,Arbovirus anti repeat=2
O=C(c1ccco1)N(Cc1cccs1)C1CCS(=O)(=O)C1 (centres undefined),-1,10,1.2,-7%,-13,
O=C(OCN1C(=O)c2ccccc2C1=O)C1CCCCC1,6,1,3.6,-11%,-38,Arbovirus anti repeat=7
Cc1cccc(C(=O)Nc2cccc(-c3cnc4ccccc4n3)c2)c1,0,-18,0.3,11%,-13,
COc1ccc(-n2ccn(CC(=O)Nc3ccc(OC)cc3OC)c(=O)c2=O)cc1,-9,/,-0.3,/,/,
COc1ccc(NC(=O)Nc2ccc3nccnc3c2)cc1,0,-6,1.1,-4%,-30,Arbovirus anti repeat=1
Cc1ccc(NC(=O)CN(C)C(=O)CN2C(=O)NC(C)(c3ccccc3)C2=O)cc1 (centres undefined),-5,3,5.7,-3%,-22,
CCOC(=O)CCNC(=O)c1ccccc1Br,1,-4,0.9,-12%,-18,
COC(=O)Cc1c(C)nc2nc(-c3ccccc3)[nH]n2c1=O,6,1,-1.2,2%,-27,
O=S(=O)(Cc1ccccc1Cl)CC(O)COc1ccccc1Cl (centres undefined),2,4,4.3,7%,-4,
COc1cc(-c2nnco2)cc(OC)c1OC,-7,0,-0.7,26%,/,

# Part of the list above in order of SMILES length, lowest first.
SMILES,Mtb bLac sens,Arbovirus anti,RecA splice inh,Mtb growth,YopH PTP inh,others
c1ccc2c(c1)OCCOCCOCCO2,-7,14,-4.8,-3%,/,
COc1cc(-c2nnco2)cc(OC)c1OC,-7,0,-0.7,26%,/,
CCOc1cc(S(=O)(=O)NC2CCCC2)ccc1Cl,-4,-15,0.9,-7%,-21,
COc1ccc(NC(=O)Nc2ccc3nccnc3c2)cc1,0,-6,1.1,-4%,-30,Arbovirus anti repeat=1
Cn1c(SCC(=O)Nc2nccs2)nnc1-c1ccncc1,0,2,-2.0,-15%,-24,
CCOC(=O)c1ccc(Oc2nc(OC)cc(OC)n2)cc1,4,-1,-1.7,0%,/,
O=S(=O)(Cc1ccccc1Cl)CC(O)COc1ccccc1Cl (centres undefined),2,4,4.3,7%,-4,
O=C(c1ccco1)N(Cc1cccs1)C1CCS(=O)(=O)C1 (centres undefined),-1,10,1.2,-7%,-13,
C#CC(CC)(CC)NC(=S)Nc1ccc(S(N)(=O)=O)cc1,-5,1,1.1,1%,-3,
COC(=O)Cc1c(C)nc2nc(-c3ccccc3)[nH]n2c1=O,6,1,-1.2,2%,-27,
CCCCn1c(=O)c(C(=O)Nc2cnccn2)c(O)c2ccccc21,97,-1,-4.2,5.8µM*,-18,
Cc1cccc(C(=O)Nc2cccc(-c3cnc4ccccc4n3)c2)c1,0,-18,0.3,11%,-13,
COc1ccc(NC(=O)CCCC2=NS(=O)(=O)c3ccccc3N2)cc1,0,4,-0.2,/,1,Arbovirus anti repeat=2
COc1cc(NC(=O)CSc2nnc3n2C(C)(C)Cc2ccccc2-3)cc(OC)c1,2,-23,9.1,-1%,-10,
Cc1ccc(NC(=O)CN(C)C(=O)CN2C(=O)NC(C)(c3ccccc3)C2=O)cc1 (centres undefined),-5,3,5.7,-3%,-22,

# Later entries
SMILES,Mtb bLac sens,Arbovirus anti,RecA splice inh,Mtb growth,YopH PTP inh,others
COc1ccccc1CC(=O)Nc1ccc(-c2noc(COc3ccc(Br)cc3)n2)cc1,6,1,-1.8,4%,-9,
COc1ccc(C(CNCC(=O)Nc2ccccc2F)N(C)C)cc1 (centres undefined),-3,/,0.0,/,/,
Cc1ccc(C(=O)C(=O)c2ccc(C)c(N)c2)cc1N,5,/,1.3,9%,/,
Clc1nc(-c2ccccc2)cc(-c2ccc(Br)cc2)n1,/,/,-0.7,-4%,-33,
O=C(COC(=O)CCC(=O)c1ccc(F)cc1)Nc1ccc(F)cc1F,-12,-2,-0.6,-7%,/,
O=C(NC(c1ccccc1)c1ccccc1)C1(c2cccs2)CCOCC1,3,0,-0.9,1%,-23,
C=CCOCCN(C)C1=NS(=O)(=O)c2ccccc21,3,-1,-0.8,-4%,/,
O=C(COC(=O)c1ccccc1O)Nc1ccc(OC(F)F)cc1,-16,9,-0.9,50%,-30,
Cc1cc(-c2onc3ccc(Cl)cc23)ccc1O,-4,/,1.8,/,/,
CCOC(=O)c1c(NC(=O)CSc2nc3ccccc3s2)sc(C)c1C,-1,-4,1.8,-6%,-2,
COc1ccc(C(=O)NC2CC(C)(C)NC(C)(C)C2)cc1OC,-5,/,0.6,/,/,
O=C(Cn1c(=O)[nH]n(-c2ccccc2)c1=O)N1CCCc2ccccc21,-5,3,-1.5,-1%,-22,
O=C(NC(=S)Nc1ccc(NC(=O)c2cccs2)cc1)c1ccco1,84,-7,0.4,8%,-61,
C=CCOC(=O)C1=C[C@@H](c2ccccc2)[C@H](CCCO)[C@@H](OCC)O1,-7,-5,-0.5,-5%,/,

# These rows are one share of the data. The share of hits here may be higher or lower than overall.
